# Screening data: PubChem BioAssay, National Center for Advancing Translational Sciences (NCATS)
# VACV mCherry inh – qHTS for Stage-Specific Inhibitors of Vaccinia Orthopoxvirus: mCherry Reporter Primary qHTS; AID 720579, 2013; Vaccinia virus mCherry reporter infection, fluorescence; about a quarter of the inactives have no number; Potency, µM (series often up to 36.5 µM), inactives show at the highest dose activity change, negative = inhibition, usual class: inhibitors; actives 0.63% (n = 310,000); active = well fitted inhibition curve with a large enough effect; inconclusive = small, poorly fitted or top-dose-only effect; inactive = no such curve, though single readings can be large or run the other way; tested in A549 cells; further: nearly all actives have a fitted effect of over 35% in size; inactives centre near -10
# VACV Venus inh – qHTS for Stage-Specific Inhibitors of Vaccinia Orthopoxvirus: Venus Reporter Primary qHTS; Vaccinia virus Venus reporter expression, fluorescence; Potency, µM (top dose mostly 36.5 µM), for the others: at the top dose activity change, negative = inhibition, actives largely listed as inhibitors; actives 0.46% (n = 330,000); AID 720580, 2013; active means well fitted inhibition curve with a large enough effect; inconclusive means small, poorly fitted or top-dose-only effect; inactive means no such curve, though single readings can be large or run the other way; tested in A549 cells; further: nearly all actives have a fitted effect of over 30% in size; inactives centre near -10
# * marks the source's active call; other numbers are inactive results; i = inactive; ? = inconclusive; . = no result given; & = joins results of further samples; [ ] = another dose, or the depositor's remark. On the % scale 0 is the no-effect control and ±100 the full control effect; potency means the concentration at half of the fitted maximal effect.
# Under each structure – VACV mCherry inh	VACV Venus inh
> Cc1ccc(OCc2cc(C(=O)N(C)Cc3cnc4ccccn34)no2)cc1C
    -4%[7.34 µM]	-10%[7.34 µM]
> CCCCC1Cc2[nH]c(=S)[nH]c(=O)c2C(c2ccc3ccccc3c2)O1 (centres undefined)
    -19%	-6%
> C[C@@H]1CN([C@H](C)CO)C(=O)c2c(c3ccccc3n2C)-c2ccccc2CO[C@H]1CN(C)Cc1ccccc1
    -22%	?
> Cc1ccc(NC(=O)CC2Oc3ccccc3NC2=O)c(C)c1 (centres undefined)
    i	-11%
> Cc1ccc(Cl)cc1N1CCN(C(=O)c2noc3c2CCCC3)CC1
    i	-16%
> CSc1ccc(S(=O)(=O)Nc2ccc3c(c2)OCCO3)cc1
    -17%	-14%
> Cc1ccc(NC2=CC(=O)CC(C)(C)C2)cc1Cl
    -13%	2%
> Cc1cccc(Cn2c(C(C)(C)C)cc3cccnc32)c1
    .	6%
> COc1cccc(NC(=O)Cn2c(=O)n(-c3ccc(Cl)cc3)c(=O)c3sc4ccccc4c32)c1
    -17%	-15%
> O=C(Nc1nccs1)c1cc(N2CCOCC2)nc2ccccc12
    .	-5%

# Filtered by structure: the compounds so far with a Cl atom
# Under each structure – VACV mCherry inh	VACV Venus inh
> Cc1ccc(Cl)cc1N1CCN(C(=O)c2noc3c2CCCC3)CC1
    i	-16%
> Cc1ccc(NC2=CC(=O)CC(C)(C)C2)cc1Cl
    -13%	2%
> COc1cccc(NC(=O)Cn2c(=O)n(-c3ccc(Cl)cc3)c(=O)c3sc4ccccc4c32)c1
    -17%	-15%

# Next part.
# Under each structure – VACV mCherry inh	VACV Venus inh
> COc1ccc(OC)c(-c2nc(C(=O)NC3CCN(Cc4ccccc4)CC3)cc3c2[nH]c2ccccc23)c1
    -29%	-19%
> COc1cc(Nc2c3c(nc4ccccc24)CCCC3)cc(OC)c1OC
    ?	?
> Cc1ccc(-c2csc(N(C)C(=O)c3c(C)nn(-c4ccccc4)c3Cl)n2)cc1
    -13%	-10%
> Cc1nc([N+](=O)[O-])c(Br)n1CC(=O)c1ccc2ccccc2c1
    1.1µM*	1.6µM*
> CC(=O)O[C@@]12CO[C@@H]1C[C@H](O)[C@@]1(C)C(=O)[C@H](O)C3=C(C)[C@@H](OC(=O)[C@H](O)[C@@H](NC(=O)c4ccccc4)c4ccccc4)C[C@@](O)([C@@H](OC(=O)c4ccccc4)C12)C3(C)C (some centres undefined)
    -2%	-24%
> COC(=O)c1ccccc1NS(C)(=O)=O
    -6%	-20%&-13%
> CCC(C)Sc1ccc([C@@H]2[C@H]3C(=O)N(C)C(=O)[C@H]3[C@]3(C(=O)OC)CCCN23)cc1 (some centres undefined)
    -8%	-28%
> O=C1NC(c2ccccc2)CCO1 (centres undefined)
    i	-16%
> Cc1c(C(=O)OCC(C)(C)CN(C)C)oc2ccccc12
    -11%	-8%
> CCn1cc(C(=O)N(C)Cc2ccccc2)c(=O)c2cc(S(=O)(=O)N3CCCCCC3)ccc21
    -13%	-8%

# Under each structure – VACV mCherry inh	VACV Venus inh
> COc1ccccc1CCC(=O)OCC(=O)NC1CC1
    -8%	5%
> COc1ccc(C(N)CCc2ccco2)cc1 (centres undefined)
    .	-7%
> COc1nsnc1NS(=O)(=O)c1ccc(NC(=S)NC(=O)c2cccnc2)cc1
    -14%	-2%
> CCOc1ccc(Nc2nc(NCC(=O)O)nc(N)c2[N+](=O)[O-])cc1
    i	-7%
> CCOc1ccccc1NC(=O)COC(=O)C1CC(=O)N(c2c(C)cccc2C)C1 (centres undefined)
    -15%	-11%
> Cc1ccc(-c2nc3ncccc3o2)cc1NC(=O)c1ccccc1Br
    -8%	-5%
> OCC1(Cc2ccccc2)CCCN(Cc2ccc3c(c2)OCCO3)C1 (centres undefined)
    -19%	-17%
> CCCCOn1c(C)c(C(C)=O)c2c3no[n+]([O-])c3ccc21
    -12%	2%
> COc1ccc(Cl)cc1NC(=O)CN(C)C(=O)c1cc2ccccc2cc1OC
    -2%	-24%
> CCOc1cc(C(=O)Nc2cc3c(cc2N2CCOCC2)n(C)c(=O)n3C)cc(OCC)c1OCC
    -11%	1%

# Under each structure – VACV mCherry inh	VACV Venus inh
> S=C(NCc1cccnc1)Nc1cccc2ccccc12
    -12%	7%
> COc1ccccc1CNc1nc2cc(-c3ccsc3)sc2c(=O)n1C
    i	-13%
> C[C@@H]1CCCCO[C@H](CN(C)S(=O)(=O)c2cccs2)[C@H](C)CN([C@@H](C)CO)C(=O)c2cc(NC(=O)NC3CCCCC3)ccc2O1
    -19%	?
> COc1cccc(NC(=O)CN2C(=O)COc3ccc(C)cc32)c1
    -8%	-8%
> COc1ccc(-c2sc3ccc(OC)cc3c2-c2ccc(O)cc2)cc1
    ?	?
> O=c1c2cnn(-c3ccc(F)cc3)c2ncn1Cc1ccc(F)cc1
    -2%	-11%&-13%
> CC(=O)NC(Cc1ccccc1)C(=O)N1CCN(C(=S)NCC(C)C)CC1 (centres undefined)
    i	5%
> CC(=O)Nc1nnc(-c2ccc3c(c2)CCCC3)o1
    -17%	-30%
> CCCCSCCCNC(=O)C1CCC(CNS(=O)(=O)c2c(C)cc(C)cc2C)CC1 (centres undefined)
    4%	-3%
> CCN=C1S/C(=C\c2cn(CC(=O)NCc3ccco3)c3ccccc23)C(=O)N1CC
    -4%	0%

# Under each structure – VACV mCherry inh	VACV Venus inh
> Cc1ccc(C)c(NC(=O)CN2C(=O)C(C)(C)c3ccccc32)c1
    2%	-7%
> Cc1ccc(C(=O)Nc2cc3c(cc2C)n(C)c(=O)c(=O)n3C)cc1
    -10%	-8%
> NC(=O)c1ccc(NC(=O)COC(=O)/C=C/c2ccc3c(c2)OCO3)cc1
    -12%	1%
> CCOc1ccccc1NC(=O)CN(C)S(=O)(=O)c1ccc2[nH]c(=O)oc2c1
    -11%[7.34 µM]	-4%[7.34 µM]
> Cc1cc(C)cc(C(=O)OCC(=O)N2CCCC2)c1
    26%	-7%
> O=C(NCc1ccccc1Cl)C1CCC(CNS(=O)(=O)c2ccc(Cl)cc2)CC1 (centres undefined)
    -3%	-12%
> CS(=O)Cc1cc(Sc2ccccc2)nc(-c2ccncc2)n1 (centres undefined)
    -1%	7%
> Cc1ccc(Cl)cc1NC(=O)CSc1nnc(C)n1-c1ccccc1
    -17%	-17%
> COc1ccc(/C=C2\SC(=O)N(CCNC(=O)C3CSC4(C)CCC(=O)N34)C2=O)cc1 (centres undefined)
    i	-8%
> CN1CCN(c2ccc(Cl)cc2NC(=O)CN2C(=O)NC(C)(c3ccccc3)C2=O)CC1 (centres undefined)
    -19%	-23%

# Under each structure – VACV mCherry inh	VACV Venus inh
> CCOC(=O)C(=O)Nc1nnc(CCc2ccccc2)s1
    -9%	-1%
> COC(=O)N1CCCCC1c1cc(C(=O)NCc2ccc(F)cc2)no1 (centres undefined)
    i	3%
> COc1ccc(-c2nc3ccc(NS(=O)(=O)c4ccc(Cl)cc4)cc3o2)cc1
    -4%	3%
> O=C(CSc1nnc(-c2ccco2)o1)Nc1cccc([N+](=O)[O-])c1
    -14%	-4%
> COC(=O)c1ccccc1NC(=O)Nc1ccc(Br)cn1
    0%	4%
> CCOC(=O)C1=C(c2ccccc2)NC(=S)NC1C (centres undefined)
    -10%	-9%
> COc1ccc(Cl)cc1NS(=O)(=O)c1cccc(C(=O)NCC(c2ccco2)N(C)C)c1 (centres undefined)
    -14%	-4%
> CC(C)(C)OC(=O)NNC(=O)C12CC3CC(CC(C3)C1)C2
    -4%	-1%
> CCOC(=O)/C(N=Nc1c(Br)cc(Br)cc1Br)=C(\C)O
    -13%	-18%
> O=C(CCS(=O)(=O)Cc1ccccc1)N1CCN(c2ccc([N+](=O)[O-])cc2)CC1
    -3%	-9%

# Under each structure – VACV mCherry inh	VACV Venus inh
> CC1CCC2(CC1)NC(=O)N(CC(=O)N1CCN(S(=O)(=O)c3ccccc3)CC1)C2=O (centres undefined)
    -7%	-11%
> O=C(O)C1C2CCC(C2)C1C(=O)NCc1ccccn1 (centres undefined)
    .	-5%
> COc1cccc(CC(=O)OCC(=O)N2CCN(c3ccc(F)cc3)CC2)c1
    i	-14%
> O=C(Nc1ccc(Br)cc1)N1CCc2ccccc2C1
    -1%	-14%
> O=C(/C=C/c1ccccc1)N1CCC(c2ccccc2)C1 (centres undefined)
    0%	-4%
> O=c1[nH]cnc2scc(-c3ccsc3)c12
    .	-19%
> Cc1occc1-c1nnc(SCC(=O)N(C)c2ccccc2)n1C
    i	-12%
> COc1ccccc1CNC(=O)c1nn(C)c2c1CS(=O)(=O)c1ccccc1-2
    -14%	-9%
> CC(C)CCOCc1nc2sc3c(c2c(=O)[nH]1)CCC(C)C3 (centres undefined)
    i	-4%
> Nc1ccc(NC(=O)c2cccs2)c(Cl)c1
    ?	-12%

# Under each structure – VACV mCherry inh	VACV Venus inh
> O=P1(NC2CCCCC2)OCC2(CO1)COP(=O)(NC1CCCCC1)OC2 (centres undefined)
    i	-9%
> CCN1CCN(CCC(=O)Nc2ccc(F)c(F)c2)CC1
    -15%	1%
> Cc1c(NC(=O)COC(=O)CCC(=O)c2ccc(Cl)cc2)c(=O)n(-c2ccccc2)n1C
    13%	-6%
> Cc1c(Cl)cccc1NC(=S)N(Cc1cccs1)C1CCCC1
    -9%	-18%
> CN(C)CCCN(C(=O)c1ccc(S(=O)(=O)N(C)C)cc1)c1nc2cc3c(cc2s1)OCO3
    -15%	-8%
> CCCS(=O)(=O)N1CCCC(C(=O)NCCCN2CCCC2=O)C1 (centres undefined)
    i	-1%
> Cc1ccc(OCCSc2nc3ccccc3n2CCC(=O)O)cc1
    -2%	3%
> Cc1ccccc1C(=O)Nc1nnc([C@@H]2C[C@H](O)[C@@H](CO)O2)s1
    -10%	-7%
> O=C(CCCc1cccs1)N1CCN(S(=O)(=O)c2ccccc2Br)CC1
    -29%	-8%
> Cc1ccc(NC2=NCC(=O)N2C2CCCC2)cc1
    i	-21%

# Under each structure – VACV mCherry inh	VACV Venus inh
> CCN(CC)CCNc1ccc(CO)c2oc3ccccc3c(=O)c12
    -5%	?
> O=C(NCc1ccncc1)C1CCN(S(=O)(=O)c2ccc(Cl)c(C(F)(F)F)c2)CC1
    -23%	-21%
> C=Cc1ccc(Cn2c(C(=O)O)c(CNCc3ccccc3)c3ccc(OC)cc32)cc1
    -13%	-6%
> CCOc1ccc(NC(=O)CSC2=Nc3ccccc3C3=NC(CCC(=O)NCc4ccccc4)C(=O)N23)cc1 (centres undefined)
    -26%	-29%
> O=C(CCCOc1ccccc1)Nc1ncccn1
    -11%	-11%
> O=C(O)c1cccc([N+](=O)[O-])c1C(=O)Nc1cccc2ccccc12
    -20%	-7%
> Cc1ccc(S(=O)(=O)Oc2ccc(/C=C3\N=C(c4cccc(C)c4)OC3=O)cc2)cc1
    -13%	-4%
> CCCCNC(=O)COC(=O)c1cc2c(C)nn(-c3ccccc3)c2s1
    .	3%
> COc1ccc(NC(c2ccc(F)cc2)c2nnc(-c3ccccc3Cl)o2)cc1Cl (centres undefined)
    -1%	0%
> O=Cc1ccc(N2CCCC2)o1
    -4%	-6%

# Under each structure – VACV mCherry inh	VACV Venus inh
> Cc1ccc(S(=O)(=O)N2c3ccccc3OC(C(=O)OC(C)(C)C)(C(=O)OC(C)(C)C)C2CC(=O)c2ccccc2)cc1 (centres undefined)
    -15%	14%
> COc1cc(C(=O)NCc2nnc(SCC(=O)Nc3nccs3)o2)cc(OC)c1OC
    -2%	-6%
> COc1ccnc(Oc2ccc(Cl)cc2)c1C#N
    -15%	-13%
> Cc1nc2ccccc2c(=O)n1-c1ccc(Br)cn1
    -11%[7.34 µM]	0%[7.34 µM]
> COc1cc(C2c3c(oc4ccccc4c3=O)C(=O)N2c2ccccn2)cc(OC)c1OC (centres undefined)
    -13%	-10%
> Cc1nc(C)c(C(=O)N/N=C/c2cn(C)c3ccccc23)s1
    ?	-27%
> CC1(C(=O)Nc2ccc3nc[nH]c3c2)CCN1C(=O)c1ccccc1CCc1ccccc1 (centres undefined)
    9%	-4%
> c1ccc(-c2ccc3c(c2)NC(C2Nc4cc(-c5ccccc5)ccc4O2)O3)cc1 (centres undefined)
    -23%	-12%
> COc1ccc2[nH]c3c(c2c1)CCN1C(=O)C(CC(=O)NCc2cccc(C(F)(F)F)c2)C[C@H](C(=O)N2CCOCC2)[C@@]31C (some centres undefined)
    -22%	?
> Cn1c(=O)c2sccc2n2c(CCCC(=O)Nc3ccc(F)cc3F)nnc12
    -15%&-9%	-11%&-7%

# Under each structure – VACV mCherry inh	VACV Venus inh
> O=C(c1cc(-c2cccs2)on1)N1CCN(C(c2ccccc2)c2ccccc2)CC1
    -14%	-13%
> Cc1ccc(OCC2Cn3c(nc4c3c(=O)n(C)c(=O)n4C)O2)cc1 (centres undefined)
    .	-7%
> Cc1ccc(NC(=O)COC(=O)c2cc(Cl)ccc2[N+](=O)[O-])cc1
    -12%	-10%
> Cc1ccc(S(=O)(=O)N(CC(=O)NN=C2CCN(C)CC2)c2ccc(C(C)C)cc2)cc1
    0%	-1%
> Cc1ccc(S(=O)(=O)N(C)C)cc1NC(=O)COC(=O)/C=C/c1ccc2ccccc2n1
    0%	-10%
> CCNc1nc2c(c(=O)n(Cc3ccccc3)c(=O)n2C)n1Cc1ccccc1
    .	?
> COc1ccc(-c2csc(CCn3nc(C)cc3C)n2)cc1OC
    -14%	-6%
> Cc1noc(C)c1CSCC(=O)Nc1ccccc1N1CCCC1
    ?	-12%
> O=C(O)CC1S/C(=N/N=C/c2ccc([N+](=O)[O-])cc2)N(c2ccc(O)cc2)C1=O (centres undefined)
    -10%	3%
> O=C(/C=C/c1ccc(F)cc1)Nc1ccc2[nH]c(=O)[nH]c2c1
    -22%	0%
